# Source: PubChem
# Vaccinia stage: blocks a specific stage of Vaccinia orthopoxvirus infection. Vaccinia-infected cells, mCherry/Venus stage reporter fluorescence; active compounds read low; some inactives read as strong as hits. activity change (mCherry), % (no concentration beside the values). 0.01% of 89,000 active;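 active = mCherry past -33% and 40 or more points under the early reporter, replicates agreeing; inconclusive = past -33% without that gap or agreement; tested in A549 cells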;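 also: scaled between vehicle wells and reference inhibitor wells; 23 nL library stock went into each well; one replicate is shown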
# Vaccinia stage Venus: recorded beside Vaccinia stage, whose call it bears; activity change (Venus), %; measured here: Venus reporter, other viral stage;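 negative = less Venus signal; first of two replicates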
# An asterisk follows results filed as active; u = inconclusive; x = no result given. Some of the compounds tested; the hit share may differ from the screen's.
# Each structure is followed by: Vaccinia stage, Vaccinia stage Venus
> Cc1ccc(S(=O)(=O)N(C)C[C@@H]2Oc3ccc(N(C)C)cc3CC(=O)N([C@H](C)CO)C[C@H]2C)cc1
    2.0, -6.7
> C[C@@H]1CN([C@H](C)CO)S(=O)(=O)c2ccc(C3=CCCCC3)cc2O[C@H]1CN(C)C(=O)Nc1ccc2c(c1)OCO2
    u, x
> Cc1noc(C)c1NC(=O)Nc1ccc2c(c1)CC(=O)N([C@H](C)CO)C[C@H](C)[C@@H](CN(C)Cc1ccc(Cl)c(Cl)c1)O2
    23.2, 7.5
> O=C(NCC[C@@H]1CC[C@H](NC(=O)C2CCCCC2)[C@H](CO)O1)c1ccc(F)cc1
    0.0, 7.4
> COCC#Cc1ccc2c(c1)O[C@H](CN(C)C(=O)CC1CC1)[C@H](C)CN([C@@H](C)CO)S2(=O)=O
    12.2, 13.7
> O=C([C@@H]1[C@@H](CO)[C@@H]2Cn3c(ccc(-c4ccccc4)c3=O)[C@@H]2N1Cc1cocn1)N1CCCCC1
    4.1, 6.6
> O=C(c1cnccn1)N1CC(=O)N2[C@H](CO)[C@@H](c3ccc(C#CCc4ccccc4)cc3)[C@@H]2C1
    14.1, -7.7
> C[C@@H]1CN([C@@H](C)CO)C(=O)c2cc(NC(=O)C3CCCCC3)ccc2O[C@@H](C)CCCCO[C@@H]1CN(C)C(=O)c1ccccc1
    4.1, -3.5
> CCS(=O)(=O)N1CCC2(CC1)CN(C(=O)NC(C)C)[C@H](CO)c1c2c2ccc(OC)cc2n1C
    9.2, 4.6
> CCN(C[C@@H]1N[C@@H](CO)[C@H]1c1ccc(-c2ccc(F)cc2)cc1)C(=O)CN(C)C
    u, x
> C[C@H](CO)N1C[C@H](C)[C@H](CN(C)C(=O)C2CC2)Oc2cc(C3=CCCCC3)ccc2S1(=O)=O
    -12.0, -4.0
> O=C(C[C@@H]1CC[C@H]2[C@@H](COC[C@H](O)CN2S(=O)(=O)c2ccccc2)O1)NCC1CCCCC1
    -13.9, -14.9
> CC(=O)N(C)C[C@H]1Oc2cc(C3=CCCC3)ccc2S(=O)(=O)N([C@@H](C)CO)C[C@@H]1C
    -13.2, -12.0
> CCS(=O)(=O)NCC[C@@H]1CC[C@@H](NC(=O)Nc2ccccc2)[C@H](CO)O1
    15.0, 12.1
> CC(=O)N1CC2(C1)[C@H](c1ccc(-c3ccccc3C)cc1)[C@@H](CO)N2C(=O)CC1CC1
    -6.1, -2.7
> COc1ccc(OC(=O)N(C)C[C@H]2OCc3ccccc3-c3c(n(C)c4ccccc34)C(=O)N([C@@H](C)CO)C[C@H]2C)cc1
    u, x
> CCc1sc(N2[C@@H](C#N)[C@@H](c3ccccc3-c3ccccc3)[C@@H]2CO)nc1C
    -2.0, -1.1
> C[C@@H]1CCCCO[C@@H](CN(C)Cc2ccncc2)[C@@H](C)CN([C@H](C)CO)C(=O)c2cc(NC(=O)CCCCCC(=O)Nc3ccccc3N)ccc2O1
    3.2, 2.3
> C[C@@H]1CCCCO[C@H](CN(C)C(=O)C2CCCCC2)[C@H](C)CN([C@@H](C)CO)C(=O)c2cc(NS(=O)(=O)c3ccccc3)ccc2O1
    u, x
> CO[C@H]1CN(C)C(=O)c2ccc(NS(C)(=O)=O)cc2OC[C@@H](C)N(CC2CCOCC2)C[C@H]1C
    3.2, 0.5
> C[C@H]1CN([C@@H](C)CO)C(=O)c2cc(C#CCN(C)C)cnc2O[C@@H]1CN(C)C(=O)Nc1ccccc1F
    19.8, 8.5
> CO[C@H]1CN(C)C(=O)c2ccc(NS(=O)(=O)c3cn(C)cn3)cc2OC[C@H](C)N(CC2CC2)C[C@@H]1C
    6.9, 3.3
> C[C@@H]1CN([C@@H](C)CO)S(=O)(=O)c2ccc(-c3cccc(C(=O)N(C)C)c3)cc2O[C@H]1CN(C)C(=O)Nc1ccccc1
    -5.9, -4.2
> COc1ccc2c3c(n(C)c2c1)[C@@H](CO)N(Cc1ccccc1OC)CC31CN(CC2CC2)C1
    -24.9, -16.5
> CCN1[C@H](C(=O)NCc2ccccc2)[C@@H](CO)[C@@H]2Cn3c(ccc(-c4ccccc4OC)c3=O)[C@@H]21
    11.6, 9.2
> CC(C)NC(=O)N1[C@@H]2CN(C(=O)Nc3ccccc3)c3ccccc3[C@@H]2[C@@H]1CO
    1.5, 6.1
> CCCNC(=O)C[C@@H]1C[C@@H]2c3cc(NC(=O)Nc4ccc(OC)cc4)ccc3O[C@@H]2[C@H](CO)O1
    16.6, 9.4
> COc1ccc(NC(=O)N(C)C[C@@H]2Oc3ccc(NC(=O)CCCCCC(=O)Nc4ccccc4N)cc3CC(=O)N([C@H](C)CO)C[C@H]2C)cc1
    -4.5, -1.6
> C[C@@H]1CN([C@H](C)CO)S(=O)(=O)c2ccc(C#Cc3ccncc3)cc2O[C@@H]1CN(C)CC1CC1
    -18.6, -14.2
> O=S(=O)(c1cccs1)N1CCCCN2[C@H](CO)[C@@H](c3ccc(/C=C/c4ccccc4)cc3)[C@@H]2C1
    -2.8, -4.7

# Some of these compounds in order of heavy-atom count, ascending:
# Each structure is followed by: Vaccinia stage, Vaccinia stage Venus
> Cc1noc(C)c1NC(=O)Nc1ccc2c(c1)CC(=O)N([C@H](C)CO)C[C@H](C)[C@@H](CN(C)Cc1ccc(Cl)c(Cl)c1)O2
    23.2, 7.5
> C[C@@H]1CN([C@@H](C)CO)C(=O)c2cc(NC(=O)C3CCCCC3)ccc2O[C@@H](C)CCCCO[C@@H]1CN(C)C(=O)c1ccccc1
    4.1, -3.5
> C[C@@H]1CCCCO[C@H](CN(C)C(=O)C2CCCCC2)[C@H](C)CN([C@@H](C)CO)C(=O)c2cc(NS(=O)(=O)c3ccccc3)ccc2O1
    u, x

# The list continues.
# Each structure is followed by: Vaccinia stage, Vaccinia stage Venus
> O=S(=O)(N[C@H]1CC[C@H](CCn2cc(-c3ccccn3)nn2)O[C@@H]1CO)c1cccc(F)c1
    2.3, 3.3
> COc1ccccc1CNC(=O)C[C@H]1C[C@@H]2c3cc(NC(=O)Nc4ccc(C(F)(F)F)cc4)ccc3O[C@@H]2[C@H](CO)O1
    4.8, 11.7
> C[C@@H]1CN([C@H](C)CO)C(=O)c2cc(NC(=O)CCCCCC(=O)Nc3ccccc3N)ccc2O[C@@H](C)CCCCO[C@@H]1CN(C)S(=O)(=O)c1ccc(Cl)cc1
    29.2, 20.1
> COc1ccc(NC(=O)Nc2ccc3c(c2)C(=O)N([C@@H](C)CO)C[C@@H](C)[C@@H](CN(C)C(=O)Nc2ccc(C(F)(F)F)cc2)O3)cc1
    -15.6, -16.3
> COc1ccccc1NC(=O)N(C)C[C@@H]1OCc2ccccc2-c2ccccc2C(=O)N([C@H](C)CO)C[C@@H]1C
    5.4, -7.7
> C[C@H](CO)N1C[C@H](C)[C@@H](CN(C)C)Oc2cc(-c3ccccc3)ccc2S1(=O)=O
    -16.4, -8.0
> O=C(C[C@H]1CC[C@@H](NC(=O)c2cccnc2)[C@@H](CO)O1)NCCN1CCCCC1
    3.0, 4.3
> O=C(Nc1ccccc1F)N1C[C@@H]2[C@H](c3ccccc31)[C@H](CO)N2C(=O)Cc1ccccc1
    9.4, 10.2
> C[C@H](CO)N1C[C@H](C)[C@@H](CN(C)C(=O)Nc2ccc(C(F)(F)F)cc2)OCCCC[C@H](C)Oc2ccc(NS(C)(=O)=O)cc2C1=O
    u, x
> CCCNC(=O)N1[C@H](CO)[C@H](c2ccccc2-c2ccccc2)[C@@H]1C#N
    5.4, 2.5
> CNC[C@@H]1OCCCC[C@@H](C)Oc2ccc(NC(=O)NC(C)C)cc2C(=O)N([C@H](C)CO)C[C@H]1C
    14.0, 4.6
> CCC(=O)N1CC2(CCN(Cc3cccnc3)CC2)c2c(n(C)c3cc(OC)ccc23)[C@H]1CO
    -6.2, -11.1
> COc1ccc(CN(C)C[C@@H]2OCCCC[C@@H](C)Oc3ccc(NC(=O)NC(C)C)cc3C(=O)N([C@@H](C)CO)C[C@@H]2C)cc1
    -12.8, -2.2
> CCC(=O)N[C@H]1C=C[C@H](CC(=O)NCC2CCCCC2)O[C@H]1CO
    -10.5, -11.7
> C[C@@H]1CN([C@H](C)CO)C(=O)c2cc(-c3cccc(F)c3)cnc2O[C@H]1CN(C)S(=O)(=O)c1cccc(F)c1
    -5.2, -10.0
> O=C(C[C@H]1C=C[C@@H](NS(=O)(=O)c2ccc(F)cc2)[C@@H](CO)O1)NCCc1ccncc1
    15.5, 13.6
> C/C=C/c1ccc(C2[C@H]3CNC[C@@H]2N3Cc2cccc(C(F)(F)F)c2)cc1 (stereo partly drawn)
    3.4, 1.1
> O=C(C[C@H]1CC[C@H]2[C@@H](COC[C@H](O)CN2S(=O)(=O)c2cccc(Cl)c2)O1)N1CCOCC1
    0.1, -0.1
> O=C(Nc1ccc2c(c1)[C@H]1C[C@H](CC(=O)N3CCc4ccccc4C3)O[C@@H](CO)[C@H]1O2)NC1CCCC1
    -0.5, 7.4
> CO[C@H]1CN(C)C(=O)c2cc(NC(=O)NC3CCCCC3)ccc2OC[C@@H](C)N(C)C[C@@H]1C
    10.4, 12.9
> O=C(C[C@H]1CC[C@H](NC(=O)NC2CCCCC2)[C@@H](CO)O1)NCc1ccc(F)cc1
    -4.5, 3.1
> C[C@@H]1CN([C@@H](C)CO)C(=O)c2cccc(NC(=O)Nc3ccc(C(F)(F)F)cc3)c2O[C@@H]1CN(C)Cc1ccc(C(=O)Nc2ccccc2N)cc1
    1.3, 5.1
> COc1ccc(S(=O)(=O)Nc2ccc3c(c2)C(=O)N([C@H](C)CO)C[C@@H](C)[C@@H](CN(C)S(=O)(=O)c2ccccc2)OCCCC[C@H](C)O3)cc1
    -22.1, -10.3
> C[C@H](CO)N1C[C@H](C)[C@H](CN(C)Cc2ccc(Oc3ccccc3)cc2)Oc2c(NS(=O)(=O)c3ccc(Cl)cc3)cccc2C1=O
    -23.4, -11.5
> CC(C)NC(=O)N(C)C[C@H]1OCCCC[C@H](C)Oc2ccc(NS(C)(=O)=O)cc2C(=O)N([C@@H](C)CO)C[C@H]1C
    11.4, 6.2
> C[C@@H]1CN([C@H](C)CO)C(=O)c2cccc(NS(C)(=O)=O)c2O[C@@H]1CN(C)C
    2.5, -8.7
> C[C@H]1CN([C@@H](C)CO)S(=O)(=O)c2ccc(C#Cc3ccccc3F)cc2O[C@@H]1CN(C)C
    u, x
> CNC(=O)C[C@H]1CC[C@H]2[C@H](COc3ccc(NC(=O)c4ccc(OC)cc4)cc3C(=O)N2C)O1
    9.6, 6.7
> COCCCNC(=O)[C@@]1(Cc2ccccc2)COC(c2ccc(OCCCO)cc2)=N1
    11.5, 0.6
> CO[C@@H]1CN(C)C(=O)c2cc(NC(=O)c3nc4ccccc4s3)ccc2OC[C@H](C)N(Cc2cncnc2)C[C@H]1C
    -14.6, -2.8
> COc1ccc(NC(=O)N(C)C[C@@H]2OCCCC[C@@H](C)Oc3ccc(NC(=O)NC4CCCCC4)cc3C(=O)N([C@H](C)CO)C[C@@H]2C)cc1
    34.6, 18.0
> O=C(NCc1cc(F)cc(F)c1)[C@@H]1[C@@H](CO)[C@@H]2Cn3c(cccc3=O)[C@H]1N2C(=O)c1cnccn1
    5.0, 10.2
> CN1C(=O)c2cc(NC(=O)c3ccc(F)c(F)c3)ccc2OC[C@H]2O[C@H](CC(=O)N[C@H]3CCN(Cc4ccccc4)C3)CC[C@H]21
    -30.1, -20.8
> CN1c2ccc(-c3ccccc3)cc2[C@@H]2[C@@H](CCN2C(=O)c2ccccn2)[C@H]1CO
    -17.6, -15.0
> C[C@H](NC(=O)C[C@H]1C=C[C@@H](NC(=O)CN2CCOCC2)[C@H](CO)O1)c1ccccc1
    17.9, 17.0
> COc1ccc(NC(=O)Nc2ccc3c(c2)C(=O)N([C@@H](C)CO)C[C@H](C)[C@@H](CN(C)C)OCCCC[C@@H](C)O3)cc1
    5.0, 4.1
> CC(C)NC(=O)N(C)C[C@@H]1Oc2ccc(NC(=O)CCN3CCOCC3)cc2CC(=O)N([C@H](C)CO)C[C@@H]1C
    15.1, 3.5
> C[C@@H]1CN([C@H](C)CO)C(=O)Cc2cc(NS(C)(=O)=O)ccc2O[C@H]1CN(C)Cc1ccc(C(F)(F)F)cc1
    -14.3, -20.9
> C[C@@H]1CN([C@H](C)CO)C(=O)c2cccc(NC(=O)c3ccc(-c4nccs4)cc3)c2O[C@H]1CN(C)S(C)(=O)=O
    44.4, 22.3
> COc1ccc(-c2ccc([C@@H]3[C@@H](CO)N4C(=O)CNC[C@@H]34)cc2)cc1
    34.4, 14.6
> C[C@H]1CN([C@@H](C)CO)C(=O)c2cc(C#Cc3ccccn3)cnc2O[C@H]1CN(C)Cc1ccncc1
    7.9, 10.6
> C[C@@H]1CN([C@H](C)CO)C(=O)Cc2cc(NC(=O)NC3CCCCC3)ccc2O[C@@H]1CN(C)Cc1ccc(Cl)c(Cl)c1
    u, x
> C[C@@H]1CN([C@H](C)CO)C(=O)c2cccc(NC(=O)c3cnccn3)c2O[C@H]1CN(C)Cc1ccc2c(c1)OCO2
    0.6, -1.7
> C[C@H]1CN([C@@H](C)CO)C(=O)c2cccc(NC(=O)C3CC3)c2O[C@@H]1CN(C)Cc1ccc(C(=O)O)cc1
    -8.8, -7.1
> O=C(c1ccncc1)N1CC(=O)N2[C@H](CO)[C@@H](c3ccc(-c4cccnc4)cc3)[C@@H]2C1
    13.0, 1.4
> COc1ccccc1NC(=O)N1C[C@@H]2[C@H](c3ccccc31)[C@H](CO)N2C(C)=O
    19.7, 20.3
> COc1ccc(NC(=O)N2CCCCN3[C@H](CO)[C@H](c4ccc(-c5ccccc5C)cc4)[C@@H]3C2)cc1
    u, x
> CO[C@@H]1CN(C)C(=O)c2cc(NS(=O)(=O)c3cccc(C)c3)ccc2OC[C@H](C)NC[C@H]1C
    7.6, 9.6
> C[C@H](CO)N1C[C@H](C)[C@@H](CN(C)Cc2ccc3c(c2)OCO3)Oc2ncc(C#CCN(C)C)cc2C1=O
    -2.5, -0.3
> CNC[C@@H]1Oc2cc(C#C[C@@H](C)O)ccc2S(=O)(=O)N([C@@H](C)CO)C[C@H]1C
    4.4, 1.5
